# SENP1 inh: inhibitors of human SENP1 SUMO protease catalytic domain; 0.21% of 360,000 active; inhibition, % at 10 µM; AID 624204; recombinant SENP1 catalytic domain, CyPet-SUMO1-YPet FRET cleavage; Q9P0U3;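 active = inhibition at least 30% at 10 µM, raw YFP signal under a set limit, fluorescence ratio 0.5 to 1.5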;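 note: 0% = enzyme with DMSO and 100% = no enzyme wells; some results filed as inactive read as strong as hits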
#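 Test system: hSENP1 catalytic domain, recombinant; Amount: 20 pM final SENP1 enzyme; Medium: Tris pH 8 buffer plus EDTA, NaCl, BME, BSA, NP40, catalase; Schedule: 50 min enzyme reaction, room temperature, light-protected; Technique: FRET fluorescence in CFP and YFP emission channels; Controls: no-enzyme wells low, DMSO-plus-enzyme wells high control.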
# ATG4B inhibitor: inhibitors of human ATG4B cysteine protease. AID 504462. inhibition, % at 8.33 µM. Q9Y4P1. 0.51% of 340,000 active. ATG4B cleavage of LC3-PLA2, NBD-HPC fluorescence, 1 h; in the data active = inhibition above about 40%
# hIAP activ: increases human intestinal alkaline phosphatase activity | 0.16% of 330,000 active | P09923 | activation factor at 10 µM | purified human IAP, CDP-Star luminescence, 30 min; hits give high values; 1 = vehicle-only enzyme, 0 = enzyme-free background;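 active = activation factor of the enzyme at least 2-fold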; note: the source names both 10 and 20 µM as test concentration; values of inactives mirror those of a sister screen read the other way
# Target sequence (P09923 whole entry, looked up): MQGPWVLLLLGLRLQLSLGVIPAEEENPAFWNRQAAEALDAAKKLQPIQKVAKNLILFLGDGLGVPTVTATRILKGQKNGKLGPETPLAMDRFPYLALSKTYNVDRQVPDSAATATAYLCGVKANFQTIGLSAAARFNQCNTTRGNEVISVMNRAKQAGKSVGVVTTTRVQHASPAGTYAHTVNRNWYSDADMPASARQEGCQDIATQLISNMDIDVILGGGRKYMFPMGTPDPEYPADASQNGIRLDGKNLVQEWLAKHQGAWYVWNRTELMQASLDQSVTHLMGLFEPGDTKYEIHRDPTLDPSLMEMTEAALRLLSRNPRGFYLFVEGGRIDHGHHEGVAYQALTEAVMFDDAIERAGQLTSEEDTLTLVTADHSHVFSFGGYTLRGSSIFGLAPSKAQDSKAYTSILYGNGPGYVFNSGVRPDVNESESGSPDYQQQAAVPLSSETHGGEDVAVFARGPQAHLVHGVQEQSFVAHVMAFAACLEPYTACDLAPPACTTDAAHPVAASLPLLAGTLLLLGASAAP
# PfG6PD inh: PfG6PD (Plasmodium falciparum) enzyme inhibition; PfGluPho enzyme, NADPH resazurin-diaphorase fluorescence; inhibition, % at 20 µM; 0.78% of 350,000 active;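 active = inhibition reaching at least a set limit at 20 µM in the primary screen, cut at about 59% in these data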;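 note: 0% = DMSO wells with substrate and 100% = DMSO wells lacking glucose-6-phosphate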
# Active calls of the source: *; & = joins results of further samples. A portion of the library; count on the stated rates, not on these rows.
SMILES,SENP1 inh,ATG4B inhibitor,hIAP activ,PfG6PD inh
C[C@]12CCC3C(CC[C@H]4CC(=O)CC[C@]34C)C1CCC2=O (some centres not stated),4,1,1.1,-19
C#CCN(C)C(C)Cc1ccccc1 (configuration not stated),-1,6,1.1,-6
C[C@@]12N[C@@H](Cc3ccccc31)c1ccccc12,2&-2,-5&-6,0.91,12&14
O=P(C(Cl)Cl)(N1CCCCC1)N1CCCCC1,4,6,1.1,-4
CC(C)(C)c1o[nH]c(=O)c1CC(N)C(=O)O (configuration not stated),1,7,0.98,-25
CN(C)[C@@H]1C(=O)C(C(N)=O)=C(O)[C@@]2(O)C(=O)C3=C(O)c4c(O)cccc4[C@@](C)(O)C3C[C@@H]12 (some centres not stated),25,-5,0.97,19
C[C@]12CCC3=C4CCC(=O)C=C4CC[C@H]3C1CC[C@@H]2O (some centres not stated),-2,8,1.1,-1
CN1CC[C@]23c4c5ccc(O)c4OC2C(O)C=CC3[C@H]1C5 (some centres not stated),0,-9,1.1,13
CCN(CC)C(=O)c1ccc(NC(=O)Nc2ccccc2F)cc1,-1,-1,0.88,2
COc1cccc([C@@]2(O)CCCC[C@@H]2CN(C)C)c1,2,-5,0.91&1,1
CCC(C)NC(=O)c1c(N)n(CCCOC)c2nc3ccccc3nc12 (configuration not stated),-30,-11,1,13
C[C@]12CCC(=O)C=C1CCC1C2CC[C@@]2(C)C1CC[C@@H]2O (some centres not stated),1,0,1,1

# Random excerpt: 3 entries already listed.
SMILES,SENP1 inh,ATG4B inhibitor,hIAP activ,PfG6PD inh
C[C@]12CCC3=C4CCC(=O)C=C4CC[C@H]3C1CC[C@@H]2O (some centres not stated),-2,8,1.1,-1
CCC(C)NC(=O)c1c(N)n(CCCOC)c2nc3ccccc3nc12 (configuration not stated),-30,-11,1,13
CN(C)[C@@H]1C(=O)C(C(N)=O)=C(O)[C@@]2(O)C(=O)C3=C(O)c4c(O)cccc4[C@@](C)(O)C3C[C@@H]12 (some centres not stated),25,-5,0.97,19

# Compounds listed so far that have a carbonyl joined to an NH by a bond outside any ring:
SMILES,SENP1 inh,ATG4B inhibitor,hIAP activ,PfG6PD inh
CN(C)[C@@H]1C(=O)C(C(N)=O)=C(O)[C@@]2(O)C(=O)C3=C(O)c4c(O)cccc4[C@@](C)(O)C3C[C@@H]12 (some centres not stated),25,-5,0.97,19
CCN(CC)C(=O)c1ccc(NC(=O)Nc2ccccc2F)cc1,-1,-1,0.88,2
CCC(C)NC(=O)c1c(N)n(CCCOC)c2nc3ccccc3nc12 (configuration not stated),-30,-11,1,13

# Screening data from PubChem.
